# Rango-impB inh = Rango-importin beta binding inhibition. Q14974. Rango CFP/YFP FRET sensor + importin beta, 45 min. Potency, µM (series often up to 92.2 µM), without a hit: at the top dose inhibition of complex formation. hit rate 0.031% among 340,000; active = rising FRET ratio curve, often small or poorly fitted; inconclusive = mostly compound fluorescence or quenching in the first reads; inactive = flat curves in all reads;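 note: potency is the fitted concentration of half-maximal effect; 0% = DMSO wells and 100% = buffer wells lacking importin beta; nearly all actives have a fitted effect of over 15% in size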
# Target sequence (Q14974 whole entry, looked up): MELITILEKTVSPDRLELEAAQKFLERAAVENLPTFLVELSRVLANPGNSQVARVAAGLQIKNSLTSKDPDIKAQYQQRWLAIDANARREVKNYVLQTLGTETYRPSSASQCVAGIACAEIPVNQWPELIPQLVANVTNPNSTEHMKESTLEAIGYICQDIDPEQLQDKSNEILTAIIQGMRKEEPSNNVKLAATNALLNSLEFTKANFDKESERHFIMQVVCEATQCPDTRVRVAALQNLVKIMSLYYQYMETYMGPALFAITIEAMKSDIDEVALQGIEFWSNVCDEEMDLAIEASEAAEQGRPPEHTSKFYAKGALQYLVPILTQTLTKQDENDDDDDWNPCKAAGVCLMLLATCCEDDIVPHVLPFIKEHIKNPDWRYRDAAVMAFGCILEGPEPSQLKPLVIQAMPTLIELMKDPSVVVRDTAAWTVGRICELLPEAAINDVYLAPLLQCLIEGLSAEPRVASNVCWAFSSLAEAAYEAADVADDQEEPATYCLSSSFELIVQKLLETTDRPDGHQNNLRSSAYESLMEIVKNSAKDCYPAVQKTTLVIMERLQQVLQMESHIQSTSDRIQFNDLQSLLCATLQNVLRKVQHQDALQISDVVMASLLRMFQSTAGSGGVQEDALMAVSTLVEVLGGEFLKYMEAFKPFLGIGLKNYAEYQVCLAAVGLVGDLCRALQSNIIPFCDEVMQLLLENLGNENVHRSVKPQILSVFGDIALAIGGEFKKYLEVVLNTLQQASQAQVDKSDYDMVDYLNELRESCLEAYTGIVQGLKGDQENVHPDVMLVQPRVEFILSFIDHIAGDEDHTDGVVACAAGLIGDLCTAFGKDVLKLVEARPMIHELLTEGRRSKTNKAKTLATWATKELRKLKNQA
#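 Inhibition scored from the CFP 486 nm/YFP 530 nm FRET ratio 45 min after adding 0.125 microM importin beta to 50 nM Rango biosensor preincubated 5 min with compound (room temperature, PBS with DTT, Tween-20, BSA). No-importin wells as positive control.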
# Rango dissoc inh = inhibitors of RanGTP-induced Rango-importin beta complex dissociation | Potency, µM (top dose mostly 46.1 µM), without a hit: at the highest dose activity change, negative = inhibition | AID 540253 | hit rate 0.071% among 340,000 | O95149+P62826 | Biochemical FRET Rango-importin beta, RanGTP-induced dissociation; active means falling FRET ratio curve, often poorly fitted, with flat reads before Ran was added; inconclusive means other falling curves, or compound fluorescence or quenching; inactive means flat or rising ratio curve;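 note: potency is the fitted concentration of half-maximal effect; % of control where 0% means no effect; nearly all actives have a fitted effect of over 45% in size; -100% = wells without RanGTP and RCC1; the record marks most hits as doubtful in a second field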
#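 Compounds sat 5 min at room temperature with 0.1 uM Rango biosensor plus 0.25 uM importin beta, then FRET pre-read. RanGTP-RCC1 (0.6 uM Ran, 2mM GTP, 0.2 uM RCC1) added for 45 min, and the CFP/YFP post-read measured blocked complex dissociation.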
# miR-21 reporter = miR-21 reporter, rising signal; HeLa miR-21 FLuc reporter, luciferase, 48 h; Potency, µM (series often up to 38.3 µM), without a hit: at the highest dose reporter change, positive = more light; 340,000 tested, under 10 active; AID 2288; active = well fitted rising curve with a large enough effect; inconclusive = small, poorly fitted or top-dose-only effect; inactive = no such curve, though single readings can be large or run the other way;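 note: % of control where 0% means no effect; miR-21 action dims this reporter so a rising signal means less miR-21 action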
#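 HeLa cells endogenously expressing miR-21, stably carrying CMV-driven firefly luciferase with a downstream miR-21 binding site, 2000 cells/well. Titrations up to approximately 40 uM, 48 hours; luciferase luminescence read.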
# GLA inh pH 4.5 = blocks human alpha-galactosidase A at pH 4.5; P06280; purified enzyme, 4-MU-alpha-Gal fluorescence, pH 4.5; activity change, negative = inhibition, % at 105 µM; 230,000 tested, under 10 active; AID 1467; inconclusive = small, poorly fitted or top-dose-only inhibition, or a rising curve; inactive = flat fitted curve, though single readings scatter; no compound was filed as active;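 note: 0% = full activity with enzyme and -100% = basal without enzyme; dose as in the result columns while the protocol names 77 µM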
# Active calls of the source: *; ? = inconclusive; . = no result given.
# Screens in order: Rango-impB inh, Rango dissoc inh, miR-21 reporter, GLA inh pH 4.5
1) CCOc1cccc(/C(O)=C2/C(=O)C(=O)N(Cc3ccco3)C2c2ccncc2)c1 (stereo not given)
    0.4%, 5%, -3%, -6
2) CCCCN(Cc1cccs1)S(=O)(=O)c1csc(C(N)=O)c1
    -2.2%, -6%, 5%, .
3) COc1cc2c(Cc3ccccc3)cncc2cc1O
    ?, 12%, ., .
4) Cc1ccc(SC(C)C(=O)Nc2cccc(N(C)S(C)(=O)=O)c2)cc1 (stereo not given)
    -0.7%, 8%, 8%, -11
5) CCc1ccc(OCCCC(=O)Nc2nnc(C3CCCO3)s2)cc1 (stereo not given)
    0.2%, -5%, -2%, -20
6) CC1CCCN(Cc2c(O)ccc3c2O/C(=C\c2ccco2)C3=O)C1 (stereo not given)
    ?, ?, -15%, -7
7) CN(CC(=O)Nc1ccncc1)S(=O)(=O)c1ccc(Cl)cc1
    -3.7%, 23%, -5%, 5
8) O=C(O)CN1C(=O)C2(OCCCO2)c2ccccc21
    4.0%, 0%, 0%, -2
9) CCOC(=O)c1cnc(SCC(=O)c2ccccc2)nc1N
    -0.6%, -6%, -45%, 8
10) O=C(Nc1ccc2ccccc2n1)c1ccccc1Cl
    0.0%, 19%, -14%, .
11) CCOc1ccc(C(=O)OC(C)C(=O)N2CCN(Cc3ccccc3)CC2)cc1 (stereo not given)
    0.3%, -1%, ., .
12) CC(/C=C1\SC(=S)N(CC(=O)N2CCN(c3ccccc3)CC2)C1=O)=C\c1ccccc1
    ?, 24%, -6%, -2
13) CCOC(=O)N=S(=O)(Oc1ccc([N+](=O)[O-])cc1)c1ccccc1 (stereo not given)
    ?, 2%, -4%, -5
14) O=C(NCc1ccc(Cl)cc1)C(=O)c1c[nH]c2ccccc12
    0.1%, -4%, -22%, -4
15) COc1cc(COCC(O)CN2CCCCC2C)cc(OC)c1OC (stereo not given)
    -0.6%, -8%, -4%, .
16) COC/C=C/C1=CC2=CC(=O)C(C)(OC(=O)c3cnc4ccccc4n3)C(=O)C2=CN1c1ccc(CO)cc1 (stereo not given)
    ., ., -1%, 4
17) CCOc1ccc(-c2c(=O)n(OCc3ccccn3)c3ccccc3[n+]2[O-])cc1
    4.0%, -17%, -24%, 4
18) CCOc1cc(C(=O)OCC(=O)c2c[nH]c3ccccc23)ccc1OCC(=O)N1CCOCC1
    -2.4%, 7%, 2%, -15
19) CCOC(=O)C1(Cc2cccc(OC)c2)CCN(Cc2cccc(O)c2)CC1
    -1.8%, -11%, 9%, -5
20) COc1c(Cl)cc(Cl)cc1CNCCO
    1.8%, 4%, -3%, 5

# An excerpt of these results, with values ahead of the structure.
No. | Rango-impB inh | Rango dissoc inh | miR-21 reporter | GLA inh pH 4.5 | canonical_smiles
20 | 1.8% | 4% | -3% | 5 | COc1c(Cl)cc(Cl)cc1CNCCO
15 | -0.6% | -8% | -4% | . | COc1cc(COCC(O)CN2CCCCC2C)cc(OC)c1OC (stereo not given)

# Following part.
# Screens in order: Rango-impB inh, Rango dissoc inh, miR-21 reporter, GLA inh pH 4.5
21) O=C(COc1ccc(S(=O)(=O)NCc2ccccc2)cc1Cl)NCC1CCCO1 (stereo not given)
    1.2%, -5%, 0%, 1
22) CCNC(=S)N/N=C(\C)c1ccc(N2CCOCC2)cc1
    -0.3%, -16%, -5%, -4
23) COc1cc2c(cc1OC(C)=O)CCCCC2=O
    3.8%, -13%, ., .
24) CSc1nc(NCCCO)c2c3c(sc2n1)CN(C)CC3
    ?, ?, 0%, 25
25) Cc1nn(C2CCS(=O)(=O)C2)c(Cl)c1/C=C/C(=O)OCC(=O)Nc1ccc2c(c1)OCO2 (stereo not given)
    -2.0%, -12%, -6%, 11
26) O=C(c1cccnc1)N1CCc2ccccc2C1
    1.1%, 14%, -4%, -15
27) CCCCn1nc(C(=O)N(CC)CC(=O)Nc2c(F)cccc2F)c2ccccc2c1=O
    0.6%, -1%, ., .
28) CN1C(=O)c2cccc3c(S(=O)(=O)Nc4ccccn4)ccc1c23
    ?, -26%, -13%, -3
29) Nc1ccc(CCc2nc3ccccc3o2)cc1
    ?, -21%, -30%, -8
30) COC(=O)c1cc(C)nc(Sc2ccccc2NC(C)=O)n1
    -1.5%, -12%, -17%, 2
31) CCOc1ccc2[nH]c(=O)c(=O)[nH]c2c1
    0.8%, 12%, -9%, 0
32) COCCCN(C(=O)c1ccccc1F)c1nc(-c2ccc(OC)cc2)cs1
    0.0%, -15%, -9%, .
33) CCn1cc(CN2CCC(C(=O)Nc3cccc(-c4cccc(OC)c4)c3)CC2)cn1
    0.1%, -2%, 0%, .
34) Cc1cc(C)c(S(=O)(=O)N2CCN(c3ccc([N+](=O)[O-])c(NCc4ccco4)c3)CC2)c(C)c1
    -1.3%, -4%, -4%, 1
35) COc1cccc(/C=C/C(=O)OCC(=O)Nc2cccc(S(=O)(=O)N3CCOCC3)c2)c1OC
    1.9%, -11%, -2%, 3
36) O=C1NC2(C=Cc3c(ccc4ccccc34)O2)Oc2ccccc21 (stereo not given)
    -1.3%, -3%, -19%, 16
37) CC(=O)c1ccc(Sc2ccccc2)c([N+](=O)[O-])c1
    -1.3%, 7%, -14%, -4
38) CC(C)(C)c1ccc(OCCC(=O)Nc2ccc(N3CCOCC3)cc2N2CCOCC2)cc1
    5.9%, 0%, ., .
39) COc1ccccc1-c1c(C)oc2c(CN3CCCC(C)C3)c(O)ccc2c1=O (stereo not given)
    0.6%, -7%, -1%, .
40) COC(=O)c1c(NC(=S)NNC(=O)c2ccc(Cl)s2)sc(C(=O)N(C)C)c1C
    1.3%, 0%, -2%, .
41) O=C(Cn1ccnc1)c1ccc(Cl)cc1
    -0.1%, 6%, 0%, .
42) O=C1CC(N2CCN(c3ccccc3F)CC2)C(=O)N1c1ccc(F)cc1 (stereo not given)
    4.9%, 12%, ., .
43) COc1ccc(OCC(O)CN2C(=O)c3ccccc3S2(=O)=O)cc1 (stereo not given)
    -0.9%, -10%, -1%, 5
44) CN(C)c1ccc(-c2nc3cnccn3c2Nc2ccc3c(c2)OCCO3)cc1
    ?, ?, -59%, -13
45) O=C(Nc1ccc(S(=O)(=O)N2CCOCC2)cc1)c1ccccc1F
    0.5%, -7%, -4%, .
46) CN(C(=O)COC(=O)C1(C)CC1(Cl)Cl)c1c(N)n(Cc2ccccc2)c(=O)[nH]c1=O (stereo not given)
    -0.9%, -3%, ., .
47) COc1ccc(C(=O)Nc2ccnn2C2CCN(CCC(C)c3ccc(C)o3)CC2)cc1 (stereo not given)
    2.9%, 0%, 0%, .
48) O=C(NCc1ccc2c(c1)OCO2)c1c(-c2ccccc2)sc2ccccc12
    -0.2%, 8%, ., .
49) COc1ccccc1C(O)c1nccn1C (stereo not given)
    -2.3%, 31%, 0%, 10
50) Cc1cccc(NS(=O)(=O)c2cc(Cl)ccc2Cl)n1
    6.9%, -17%, -7%, .
51) CC(=O)NC(CC(=O)NC(C)c1ccc(Cl)cc1Cl)c1ccccc1 (stereo not given)
    0.1%, 0%, 2%, -3
52) COc1ccc([C@@H]2[C@@H]3C(=O)N(C(C)(C)C)C(=O)[C@@H]3[C@]3(Cc4ccc(Cl)cc4)C(=O)N(c4ccc(OC)cc4)C(=O)N23)cc1
    -1.1%, -13%, ., .
53) COc1ccc(-c2nn3c(COc4ccccc4)nnc3s2)cc1OC
    6.3%, 4%, -7%, -7
54) O=C(NCCCCNC(=O)c1c(F)c(F)c(F)c(F)c1F)c1c(F)c(F)c(F)c(F)c1F
    ?, -18%, 0%, 6
55) O=C(CSc1cccc(C(F)(F)F)c1)Nc1cc(S(=O)(=O)N2CCCC2)ccc1Cl
    -0.5%, 5%, 0%, -9
56) COc1ccc2c(c1)-c1nc(/N=C/c3ccc(O)c(OC)c3)sc1CC2
    0.0%, -7%, -20%, -3
57) Cc1ccc(C(=O)/C=C\Nc2ccc(C)c(C)c2)cc1
    ?, ?, -57%, 17
58) Cc1coc2c(C)c3oc(=O)cc(-c4ccccc4)c3cc12
    0.5%, 0%, ., .
59) NC(=O)C1CCN(C(=O)CCNS(=O)(=O)c2ccccc2F)CC1
    -1.0%, -5%, ., .
60) Cc1csc(SCC(=O)c2c(N)n(CC(C)C)c(=O)n(C)c2=O)n1
    -4.0%, 10%, 12%, 2
61) O=Cc1ccc(-n2cccn2)cc1
    -1.8%, -13%, -3%, 3
62) Cc1nnc(SCC(=O)Nc2ccc3c(c2)OCO3)[nH]c1=O
    5.2%, 14%, -2%, -1
63) CCS(=O)(=O)N1CCCC(C(=O)c2ccc(OC)cc2C)C1 (stereo not given)
    -2.9%, -6%, -2%, 2
64) CCOC(=O)c1ccc(OS(=O)(=O)c2ccccc2)c(OC)c1
    -6.4%, 2%, -72%, 5
65) Cc1ccc(NC(=O)N(CCCN2CCOCC2)Cc2cccnc2)cc1C
    -1.5%, 13%, -1%, 8
66) CCCCN(C(=O)Cn1nnc2ccccc21)C(C(=O)NCc1ccco1)c1ccncc1 (stereo not given)
    -0.4%, 20%, -7%, -1
67) Cc1c(Cc2ccccc2)c(=O)oc2c(C)c(OC(C)C(=O)NCC3CCC(C(=O)O)CC3)ccc12 (stereo not given)
    -0.1%, -10%, 0%, .
68) O=C(NCCCN1CCCC1=O)C1CCN(S(=O)(=O)c2ccccc2)CC1
    -0.4%, 33%, ., .
69) CCCS(=O)(=O)c1c(S(=O)(=O)CCC)c2ccc(C(C)=O)cn2c1C(=O)OC
    1.0%, -10%, -7%, 12
70) O=C(CCc1nc(-c2ccccc2F)no1)Nc1cccnc1
    -2.1%, -4%, -3%, .
71) COc1ccccc1C(C(=O)NC1CCCC1)N(C(=O)c1csnn1)C1CC1 (stereo not given)
    0.0%, 5%, 0%, .
72) CC1(C)CC(=O)C=C(Nc2ccc(Cl)cc2)C1
    3.3%, -10%, -3%, .
73) Cc1cc(C(=O)Nc2ccccc2N2CCOCC2)c2ccccc2n1
    -1.4%, -5%, 0%, -1
74) COc1ccc(Cl)cc1S(=O)(=O)Nc1ccncc1
    0.2%, 9%, -2%, 5
75) CC1CCC(NC(=O)c2cc(S(=O)(=O)N3CCCCC3)c[nH]2)CC1 (stereo not given)
    0.5%, 16%, 7%, .
76) COCCN(C(=S)Nc1c(C)cccc1C)C(C)c1cccs1 (stereo not given)
    ?, -16%, -6%, 0
77) CC1CCC2(CC1)NC(=O)N(CC(=O)NC(=O)NC1CCCC1)C2=O (stereo not given)
    1.3%, -15%, -7%, 8
78) Cc1ccc(NC(=O)CC(C)CC2=NS(=O)(=O)c3ccccc3N2)cc1 (stereo not given)
    1.9%, 32%, -1%, .
79) COC(C(=O)Nc1ccc(S(=O)(=O)Nc2c(C)cccc2C)cc1)c1ccccc1 (stereo not given)
    0.6%, 7%, -6%, -17
80) COc1ccc2nc(NC(=O)CSc3nc(SC)ns3)sc2c1
    2.5%, 1%, -43%, -6

# Further entries follow:
# Screens in order: Rango-impB inh, Rango dissoc inh, miR-21 reporter, GLA inh pH 4.5
81) CCCC(=O)Nc1cc(OC)c(NC(=O)NC2CCCCC2)cc1OC
    -11%, -4%, -17%, 1
82) CN(C(=O)CSc1nncn1-c1ccccc1)c1ccccc1
    2.2%, 25%, -3%, .
83) COc1ccc(C(=O)NCC(=O)N2CCC(C)CC2)cc1OC
    0.9%, 6%, -6%, 5
84) CSc1ccc(CN2CCN(C(C)C)C(CCO)C2)cc1 (stereo not given)
    -0.4%, ?, -1%, 2
85) NC(=NC(=O)c1ccc(OCC(F)(F)F)nc1)c1ccccc1
    0.6%, -7%, -7%, -15

# 4 of the compounds above, as labelled records.
(82) CN(C(=O)CSc1nncn1-c1ccccc1)c1ccccc1
- Rango-impB inh: 2.2%
- Rango dissoc inh: 25%
- miR-21 reporter: -3%
- GLA inh pH 4.5: .

(83) COc1ccc(C(=O)NCC(=O)N2CCC(C)CC2)cc1OC
- Rango-impB inh: 0.9%
- Rango dissoc inh: 6%
- miR-21 reporter: -6%
- GLA inh pH 4.5: 5

(84) CSc1ccc(CN2CCN(C(C)C)C(CCO)C2)cc1 (stereo not given)
- Rango-impB inh: -0.4%
- Rango dissoc inh: ?
- miR-21 reporter: -1%
- GLA inh pH 4.5: 2

(85) NC(=NC(=O)c1ccc(OCC(F)(F)F)nc1)c1ccccc1
- Rango-impB inh: 0.6%
- Rango dissoc inh: -7%
- miR-21 reporter: -7%
- GLA inh pH 4.5: -15

# High-throughput results deposited in PubChem BioAssay by National Center for Advancing Translational Sciences (NCATS).

# Not all compounds are listed; count on the stated rates, not on these rows.
